VDR inh = Inhibitors of the vitamin D receptor (VDR): qHTS; Vitamin D3 receptor (Homo sapiens), P11473; VDR-SRC2-3 peptide fluorescence polarization, 2 h; Potency, µM, inactives show max response, negative = inhibition, actives largely listed as inhibitors; actives 0.93% (n = 400,000); AID 504847, 2011; active = well fitted inhibition curve with a large enough effect; inconclusive = small, poorly fitted or top-dose-only effect, or another doubt; inactive = no such curve, though single readings can be large or run the other way; note: series mostly up to about 120 µM
Target sequence (P11473 whole entry, looked up): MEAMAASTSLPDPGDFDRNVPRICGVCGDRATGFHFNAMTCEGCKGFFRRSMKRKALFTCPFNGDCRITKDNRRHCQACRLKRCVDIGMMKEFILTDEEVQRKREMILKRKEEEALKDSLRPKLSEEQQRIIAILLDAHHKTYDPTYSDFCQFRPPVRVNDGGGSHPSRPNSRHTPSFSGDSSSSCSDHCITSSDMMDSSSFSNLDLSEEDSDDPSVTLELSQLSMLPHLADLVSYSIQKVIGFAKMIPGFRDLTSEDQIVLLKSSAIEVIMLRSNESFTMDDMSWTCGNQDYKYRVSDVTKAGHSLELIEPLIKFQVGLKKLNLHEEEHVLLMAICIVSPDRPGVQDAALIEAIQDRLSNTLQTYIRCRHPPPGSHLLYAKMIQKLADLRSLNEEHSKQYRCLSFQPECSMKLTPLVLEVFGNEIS
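After 23 nl compound addition and a short centrifugation, plates sat for 2 hours at ambient temperature; polarization of fluorescence then indicated loss of VDR binding to peptide SRC2-3.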
An asterisk follows results filed as active; ? = inconclusive. % is set by controls: 0 for no effect and ±100 for the full control effect; potency is the fitted concentration of half-maximal effect. Some of the compounds tested (hit frequency here may not be typical).

VDR inh	Structure
21%	CC1CCCN(S(=O)(=O)Cc2ccc(Cl)cc2)C1 (stereo not drawn)
-13%	O=C(c1ccc(Cl)c(S(=O)(=O)N2CCOCC2)c1)N(Cc1ccco1)Cc1cccs1
7%	COc1ccc(NC(=O)CSC2=Nc3ccccc3C3=NC(CC(=O)NCc4ccco4)C(=O)N23)cc1 (stereo not drawn)
6%	CCOC(=O)C1=C(C)NC(=O)NC1c1ccc(OC(C)C(=O)O)c(OC)c1 (stereo not drawn)
14µM*	O=C(CCS(=O)(=O)c1nc(-c2cccs2)cc(C(F)(F)F)n1)Nc1ccc(Br)cc1
-2%	COc1ccc2c(c1)O[C@@H](c1cccc(C(F)(F)F)c1)[C@H](OC(=O)Nc1ccc(C)c(Br)c1)C2=O
9%	CC1CCCCN1CCCNC(=O)Cn1ncc2c3ccccc3n(Cc3ccccc3F)c2c1=O (stereo not drawn)
16%	Cc1ccc(-c2nnc(COC(=O)c3cccs3)o2)cc1
-3%	N#CC1(P(=O)(c2ccccc2)c2ccccc2)CC1
6%	CCOC(=O)C1CCCN(C2CC(=O)N(c3ccc(C)c(C)c3)C2=O)C1 (stereo not drawn)
25µM*	Cc1ccnc(-n2sc3ccccc3c2=O)n1
1%	CCCCn1c(-c2csc3c2CCCC3)n[nH]c1=S
12%	COc1ccccc1N1CCN(C(=O)c2cc(C(C)(C)C)oc2C)CC1
6%	CC(=O)C1=NN(c2ccc(Cl)cc2)C(c2ccc3c(c2)OCO3)N(C(C)=O)N1C (stereo not drawn)
-9%	C#CCn1cc(C=C2C(=O)c3ccccc3C2=O)c2ccccc21
0%	CCc1ccc(OS(=O)(=O)c2cn(C)c(=O)n(C)c2=O)cc1
-18%	CN(C(=O)CSc1nnc(CNC(=O)c2ccccc2)o1)c1ccccc1
-9%	CCc1ccc(CN(C)C(=O)c2cc(COc3ccc(OC)cc3Cl)on2)nc1
10%	COc1cccc(CN(C)C(=O)Cc2ccc(OC)c(S(=O)(=O)N3CCOCC3)c2)c1
-7%	COc1cc(N=Nc2c(C)n(C)n(-c3ccccc3)c2=O)ccc1N
-12%	CC(C)(C)C(=O)COC(=O)C1=NN(c2ccccc2)C(=O)CC1
13%	CC(C)OCCCNC(=S)N1CCC(C(=O)c2ccc3c(c2)OCCO3)CC1
-8%	CC(=O)N1CC(=O)N(Cc2ccccc2)/C(=C/c2ccccc2)C1=O
17%	CN(C)S(=O)(=O)c1cccc(NC(=O)CSc2nc3ccccc3[nH]2)c1
17%	O=[N+]([O-])c1cc(Oc2cccnc2)cc([N+](=O)[O-])c1
-11%	CCn1nc(C(=O)NCc2ccco2)c(Cl)c1Cl
-6%	Cc1ccc(NC(=O)Cn2c(=O)n(-c3ccc(C)cc3)c(=O)c3c2cnn3C)cc1
12%	CC1=C(C(=O)OC(C)C)C(c2cccnc2)C2=C(CC(C)(C)CC2=O)N1 (stereo not drawn)
2%	C[C@@H](C(=O)Nc1ccc2c(c1)OCO2)n1c(=O)[nH]c2ccccc2c1=O
-4%	O=c1c2ccccc2cnn1Cc1ccc(Br)cc1F
13%	O=C(Cn1c(=O)n(-c2ccccc2)c(=O)c2c3c(sc21)CCCC3)Nc1ccccc1
9%	CCC(=O)Nc1cccc(C(=O)N(Cc2ccccc2)Cc2ccccc2)c1
-16%	Cc1cc(CN(C)Cc2c(C(=O)N3CCCCCCC3)nc3ccc(Cl)cn23)n[nH]1
9%	COC(=O)[C@@]1(Cc2ccc(OC)cc2)[C@H]2c3cc(C(=O)N4CCCC4)n(CCSCCO)c3C[C@H]2CN1C(=O)c1ccccc1
7%	Cc1cccc(NC(=O)CSc2nnc(-c3ccccc3C)o2)c1
6%	CCc1ccccc1NC(=O)CN1CCN(CC(=O)NCc2ccc(Cl)cc2)CC1
18%	COc1cccc(C(=O)Nc2cc(-c3ccccc3)nn2-c2ccccc2)c1
-4%	Cn1c(O)c(N=NC(=O)Cn2c(C(F)(F)F)nc3ccccc32)c2ccccc21
1%	Cc1ccc(C)c(-n2[nH]c3c4c(ccc3c2=O)C(=O)c2ccccc2C4=O)c1
12%	CSc1ncccc1C(=O)N1CCN(S(=O)(=O)c2ccc3ccccc3c2)CC1
-8%	COc1ccc2nc(Nc3nc(-c4ccncc4)cs3)sc2c1
-17%	Cc1ccc(O)c(C(=O)c2cnc(/N=C(\N)N(C)C)nc2)c1
-1%	Cc1nc(N2CCOCC2)c2c(C(=O)Nc3cccc(C(F)(F)F)c3)c(C)oc2n1
-9%	CC(C)NC(=O)C1(c2ccccc2)CCOCC1
-5%	Cc1cccnc1NC(=S)Nc1ccc(Br)cc1Cl
2%	CC(NC(=O)CCn1c(=O)c2cccn2c2ccc(F)cc21)c1ccccc1 (stereo not drawn)
-1%	CCN1C(=O)C(C)S/C1=N\S(=O)(=O)c1ccc(Cl)s1 (stereo not drawn)
7%	CSc1ccc(-c2nc(CN(C)C3CCOC3)c(C)o2)cc1 (stereo not drawn)
19%	COc1ccc(N2CCN(C(=N)/C(C(C)=O)=C(\C)O)CC2)cc1
-5%	Cn1cccc1/C=N/N1CCN(c2ccccc2)CC1
6%	NC(=O)C1(N2CCCCC2)CCN(C(=O)Nc2ccc(Cl)c(Cl)c2)CC1
-13%	CSC(=NNC(=O)c1ccc(O)cc1)SC
8%	COc1cc(/C=C2\SC(=Nc3ccc(O)cc3)NC2=O)cc(OC)c1OC
-4%	Clc1ccc(-c2nc3ccccn3c2CN2CCOCC2)cc1
1%	O=C(NCCCCCCNC(=O)c1ccccc1O)c1ccccc1O
3%	O=C(CC1Nc2cccc3cccc(c23)NC1=O)Nc1ccccc1 (stereo not drawn)
-5%	COc1ccc(S(=O)(=O)NCC(=O)N(CC(=O)NCc2ccco2)C2CCCC2)cc1
4%	CC(C)OCCCN1C(=O)c2[nH]nc(-c3ccccc3O)c2C1c1ccccc1F (stereo not drawn)
1%	O=C(COc1ccc(Cl)cc1Cl)Nn1c(=S)[nH]c2ncccc2c1=O
-4%	O=C(NC1CCCC1)C(c1ccncc1)N(C(=O)c1csnn1)c1cccc(F)c1 (stereo not drawn)

Further entries:
VDR inh	Structure
-1%	Cc1ccc(S(=O)(=O)NC2CCCc3ccccc32)cc1C (stereo not drawn)
-3%	O=C(NCCCN1CCCC1=O)c1cccc(S(=O)(=O)N2CCCCC2)c1
16%	CC(C)C(OC(=O)c1nsc(Cl)c1Cl)C(=O)NCc1ccc2c(c1)OCO2 (stereo not drawn)
7%	CCCCn1c(=O)c(C(=O)c2ccccc2)nc2ccccc21
-1%	COc1ccc(C(=O)N2CCC(C(=O)c3c(C)cc(C)cc3C)CC2)cc1
-7%	COc1cccc(N2CCN(C3=NS(=O)(=O)C(c4ccc(C)cc4)=C3C)CC2)c1
-1%	c1ccc(CN2CCN(c3nc4ccccc4c4ccccc34)CC2)cc1
5%	CCOCCOc1nc2c(c(=O)n(C)c(=O)n2C)n1CCc1ccccc1
-2%	O=C(Oc1ccc2c(=O)c(Oc3ccc4ccccc4c3)coc2c1)c1ccco1
11%	CC(C)(C)c1ccc(C(=O)NCCC(=O)N2CCN(c3ncccn3)CC2)cc1
4%	Cc1nn(-c2ccccc2)c(-n2cccc2)c1C(=O)O
-10%	Cc1cccc(Cn2c(SCCN3CCCCC3)nc3c2c(=O)[nH]c(=O)n3C)c1
-30%	CN(NC(=O)/C=C/C(=O)O)c1ncc(C(F)(F)F)cc1Cl
0%	COc1ccc(NC(=O)C2CCCN2C(=O)Nc2ccccc2)cc1OC (stereo not drawn)
4%	C=CCC(O)(CC=C)C(C)N (stereo not drawn)
-12%	CC(=O)N(c1ccccc1C)C1CCCC1
5%	COc1ccc(-c2nnn(CC(=O)Nc3ccc4c(c3)OCCO4)n2)cc1OC
-4%	CC1(C)CC(=O)C2=C(C1)c1c(ccc3ccccc13)NC2c1ccc(C(=O)O)cc1 (stereo not drawn)
-9%	O=C(NNC(=O)C1CC(c2cccnc2)=NO1)Nc1ccccc1F (stereo not drawn)
3%	CCCCn1ccc(=O)c2c(C(F)(F)F)nccc21
17%	Cc1nc(-c2ccc(F)cc2)sc1CCNC(=O)C(=O)Nc1ccc2c(c1)OCCO2
15%	COC(=O)COc1ccc(NC(=O)c2ccco2)cc1
-20%	COc1cccc(NC(=O)N2CCCC2C(=O)Nc2ccc3c(c2)OCCO3)c1 (stereo not drawn)
-7%	O=S(=O)(Nc1cccc(-c2cn3c(n2)SCC3)c1)c1ccc(F)cc1F
5%	CCOc1ccc2[nH]c3c(N4CCC5(CC4)OCCO5)ncnc3c2c1
1%	C=CCNC(=S)N/N=C/c1ccccc1OCCOc1ccccc1
10%	CC1CCCCC1NC(=O)C(=O)NCC1CCCO1 (stereo not drawn)
-26%	CCC(CC)c1nn2c(=O)cc(COc3ccc(NC(=O)c4ccc(C)cc4)cc3)nc2s1
-9%	COc1ccc(-c2nc3c(c(=O)[nH]c(=O)n3Cc3ccccc3)n2CCO)cc1
-17%	COc1ccc(C(=O)NNC(=S)NC(=O)c2ccccc2[N+](=O)[O-])cc1

Given comma-delimited: entries from further up
Molecule,VDR inh
CC1(C)CC(=O)C2=C(C1)c1c(ccc3ccccc13)NC2c1ccc(C(=O)O)cc1 (stereo not drawn),-4%
O=C(NNC(=O)C1CC(c2cccnc2)=NO1)Nc1ccccc1F (stereo not drawn),-9%
CCCCn1ccc(=O)c2c(C(F)(F)F)nccc21,3%
Cc1nc(-c2ccc(F)cc2)sc1CCNC(=O)C(=O)Nc1ccc2c(c1)OCCO2,17%
COC(=O)COc1ccc(NC(=O)c2ccco2)cc1,15%
COc1cccc(NC(=O)N2CCCC2C(=O)Nc2ccc3c(c2)OCCO3)c1 (stereo not drawn),-20%

A draw from above in order of molar mass, highest first:
VDR inh	Structure
-26%	CCC(CC)c1nn2c(=O)cc(COc3ccc(NC(=O)c4ccc(C)cc4)cc3)nc2s1
-7%	COc1cccc(N2CCN(C3=NS(=O)(=O)C(c4ccc(C)cc4)=C3C)CC2)c1
-7%	O=S(=O)(Nc1cccc(-c2cn3c(n2)SCC3)c1)c1ccc(F)cc1F
5%	CCOCCOc1nc2c(c(=O)n(C)c(=O)n2C)n1CCc1ccccc1
-1%	COc1ccc(C(=O)N2CCC(C(=O)c3c(C)cc(C)cc3C)CC2)cc1
-9%	O=C(NNC(=O)C1CC(c2cccnc2)=NO1)Nc1ccccc1F (stereo not drawn)
15%	COC(=O)COc1ccc(NC(=O)c2ccco2)cc1

(list continues)
VDR inh	Structure
?	CSc1cccc(NC(=S)N(C(C)C)C(C)c2ccccn2)c1 (stereo not drawn)
-4%	Clc1ccc(Cn2c(-c3cccnc3Cl)nc3ccccc32)c(Cl)c1
2%	CCc1ccccc1NC(=O)Cn1nc(-c2cc(C)ccc2C)c2c(c1=O)CCCC2
15%	CCOC(=O)N1CCC(=NNC(=O)NC2CCCCC2)CC1
4%	COCC(=O)C(C(=O)OC)[C@H](CCc1ccccc1)NC(=O)OC (stereo partly drawn)
-4%	Cc1cccc2c1-c1sc(C(=O)NCCCN3CCc4ccccc4C3)cc1CO2
-13%	O=C(NCc1nc2ccccc2[nH]1)C1=C[C@H](c2csc3ccccc23)C[C@H](OCc2ccc(CO)cc2)O1
-14%	Cc1ccccc1-c1nc(CN2CCC(C(=O)NC3CC3)CC2)c(C)o1
14%	CCCCCCCCC(=O)Nc1cc(C)ccc1OC
16%	CC(C)(C)OC(=O)N1CCC(c2c(C(=O)NCc3ccco3)cnn2-c2ccccc2Cl)CC1
-14%	CC(C)(C)Cc1nc2ccccc2n1CCc1ccccc1
1%	COc1ccc(C(=O)OCC(=O)c2ccc3c(c2)NC(=O)CO3)cc1S(=O)(=O)N1CCOCC1
3%	COCCNC(=O)c1nn(-c2cc(OC)cc(OC)c2)c(=O)c2ccccc12
-2%	CCC(=O)N1c2ccccc2NC2=C(C(=O)CCC2)C1c1ccc(N(C)C)cc1 (stereo not drawn)
-17%	CC(C)Sc1nnc(-c2ccc(S(=O)(=O)N3CCOCC3)cc2)n1C
-3%	CCOc1cc(/C=N/NC(N)=O)ccc1OCC(=O)Nc1ccc(C)c(C)c1
-14%	CC(C)NC(=O)CN1C(=O)NC(CCc2ccccc2)C1=O (stereo not drawn)
-2%	COC(=O)c1c(-c2cc(OC)cc(OC)c2)sc2ccc(OC)cc12
0%	Cc1cc(C)c(C)c(C(=O)COC(=O)CNC(=O)CNC(=O)c2ccco2)c1C
-12%	CCOC(=O)c1cc(-c2ccccc2)sc1NC(=O)C(C)Sc1nnc(C)s1 (stereo not drawn)
21%	Cc1ccccc1NC(=O)CCCCC(=O)Nc1ccccc1C
-5%	CCOCCOC(=O)Cn1cnc2scc(-c3ccc(C)cc3)c2c1=O
-11%	O=C(Nc1cnn(Cc2ccc(Cl)cc2Cl)c1)c1noc2c1CCCC2
-8%	c1ccc(-n2cc(CN3CCCC(CN4CCCC4)C3)c(-c3ccc4c(c3)OCO4)n2)cc1 (stereo not drawn)
4%	CCCCCn1c(=O)[nH]c2cc(C(=O)NCCN3CCCCC3C)ccc2c1=O (stereo not drawn)
2%	Cc1oc(-c2ccccc2F)nc1CS(=O)(=O)CC(=O)NCCN1CCCC1
3%	CCC(C)Nc1ncnc2c1cnn2-c1ccc(F)cc1 (stereo not drawn)
-6%	CCC(C)(C(=O)NC1CCCCC1)N(CC1CCCO1)C(=O)CNC(=O)c1ccccc1 (stereo not drawn)
4%	CCc1c(C)c(C#N)c2nc3ccccc3n2c1NCCN(C)C
-2%	COc1ccccc1CN1CCN(C(CC(C)C)c2nnnn2Cc2cccs2)CC1 (stereo not drawn)
-15%	CCn1c(SCC(=O)NC2CCCCC2)nnc1-c1ccccn1
8%	Nc1cccnc1Oc1ccccc1F

Two of the compounds above, bar-delimited.
mol | VDR inh
Clc1ccc(Cn2c(-c3cccnc3Cl)nc3ccccc32)c(Cl)c1 | -4%
CCc1ccccc1NC(=O)Cn1nc(-c2cc(C)ccc2C)c2c(c1=O)CCCC2 | 2%

Screening results: PubChem BioAssay, National Center for Advancing Translational Sciences (NCATS)
